PINK1 modulator: A Quantitative High throughput Screen to Identify Chemical Modulators of PINK1 Expression | PINK1 immunofluorescence, high-content cytometry, 24 h | Potency, µM (series often up to 76.6 µM), for the others: top-dose activation (PINK1 increase), hits mostly activators | 410,000 compounds, 0.2% hits; active = well fitted activation curve with a large enough effect; inconclusive = small, poorly fitted or top-dose-only effect; inactive = flat fitted curve, though single readings scatter; cell line not stated here;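 note: potency is the fitted concentration of half-maximal effect; % of control where 0% means no effect; nearly all actives have a fitted effect of over 65% in size; a mitochondrial uncoupler was the plate control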
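Stable cell line, 250 cells/well, 12 h attachment; compounds pinned at 5 concentrations, 24 h; CCCP control. Fixed with nuclear dye, primary antibodies 12 h at 10 degrees C, secondary plus cell stain; laser-scanning cytometer read.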
D2 potentiator: Beta-Arrestin HTS for Positive Allosteric Modulators of the Human D2 Dopamine Receptor: Potentiators. D(2) dopamine receptor (Homo sapiens), P14416. DiscoveRx D2 beta-arrestin cells, luminescence, 90 min; 100% = 57 uM dopamine signal. potentiation, % (no concentration beside the values). 360,000 compounds, 0.23% hits; active = potentiation of 50% or more; inconclusive = 30% to 50%; inactive = 30% or less;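 note: compound concentration not given in the record; tested on top of an EC20 dose of dopamine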
Target sequence (P14416 whole entry, looked up): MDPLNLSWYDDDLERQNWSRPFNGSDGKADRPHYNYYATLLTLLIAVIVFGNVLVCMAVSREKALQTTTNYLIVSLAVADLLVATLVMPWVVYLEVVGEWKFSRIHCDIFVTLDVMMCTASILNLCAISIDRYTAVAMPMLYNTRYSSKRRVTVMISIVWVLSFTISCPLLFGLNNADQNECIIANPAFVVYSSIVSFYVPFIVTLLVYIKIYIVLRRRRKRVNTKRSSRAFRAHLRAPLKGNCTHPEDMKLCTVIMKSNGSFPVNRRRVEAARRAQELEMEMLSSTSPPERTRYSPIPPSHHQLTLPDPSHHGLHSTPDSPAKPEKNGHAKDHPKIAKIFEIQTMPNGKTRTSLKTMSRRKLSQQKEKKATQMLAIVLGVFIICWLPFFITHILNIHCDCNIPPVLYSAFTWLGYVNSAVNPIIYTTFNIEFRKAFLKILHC
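PathHunter beta-arrestin assay in DiscoveRx D2 cells. Compounds were added with an EC20 of dopamine (50 nM final) for 90 min at 37 deg C. Luminescence was read 1 h after detection reagent, with 57 uM dopamine as the EC100 control.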
D2 agonist: Beta-Arrestin HTS for Positive Allosteric Modulators of the Human D2 Dopamine Receptor: Agonists | 360,000 compounds, 0.084% hits | activation, % (no concentration beside the values) | DiscoveRx PathHunter D2 beta-arrestin, luminescence, 90 min; 100% = 57 uM dopamine signal; in the data active = activation above about 40%; inconclusive = about 15% to 40%; inactive = below about 15%; note: compound concentration not given in the record; the text of the record calls up to 30% inactive
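DiscoveRx PathHunter D2 beta-arrestin cells (2,100/well) attached overnight, then compound-stimulated 90 min at 37 C in HBSS/10 mM HEPES/0.1% Tween-20 buffer; beta-galactosidase complementation read by luminescence after 1 h at ambient temperature. Dopamine 57 uM final (EC100) as control.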
Six1-Eya2 blk: qHTS Assay for Inhibitors of the Six1/Eya2 Interaction | activity change, % (test concentration not listed) | AlphaScreen GST-Six1/His-Eya2 binding, biochemical; active compounds read low; control for the full effect not named in the record | 360,000 compounds, 0.56% hits; in the data active = activity change below about -65%; inconclusive = about -30% to -65%; inactive = above about -30%; note: % is set by controls: 0 for no effect and ±100 for the full control effect
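Homogeneous AlphaScreen proximity assay pairing GST-Six1 with His-tagged Eya2 (added as 5X mix: 250 nM and 500 nM) in 50 mM Tris pH 8.0, 300 mM NaCl, 1 mM TCEP. Glutathione donor and nickel acceptor beads; 1 h, 37 °C, dark.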
TRPML1 agonist: qHTS for Agonists of the Human Mucolipin Transient Receptor Potential 1 (TRPML1) | Mucolipin-1 (Homo sapiens), Q9GZU1 | TRPML1-expressing cells, Ca2+ dye fluorescence, FDSS; host cell line not named in the record; reference of the full effect not given here | activation, % (no concentration beside the values) | 410,000 compounds, 0.12% hits; in the data active = activation above about 50%; inconclusive = about 30% to 50%; inactive = below about 30%; note: 0% is about no effect; the text of the record puts the active cut at 80%
Target sequence (Q9GZU1 whole entry, looked up): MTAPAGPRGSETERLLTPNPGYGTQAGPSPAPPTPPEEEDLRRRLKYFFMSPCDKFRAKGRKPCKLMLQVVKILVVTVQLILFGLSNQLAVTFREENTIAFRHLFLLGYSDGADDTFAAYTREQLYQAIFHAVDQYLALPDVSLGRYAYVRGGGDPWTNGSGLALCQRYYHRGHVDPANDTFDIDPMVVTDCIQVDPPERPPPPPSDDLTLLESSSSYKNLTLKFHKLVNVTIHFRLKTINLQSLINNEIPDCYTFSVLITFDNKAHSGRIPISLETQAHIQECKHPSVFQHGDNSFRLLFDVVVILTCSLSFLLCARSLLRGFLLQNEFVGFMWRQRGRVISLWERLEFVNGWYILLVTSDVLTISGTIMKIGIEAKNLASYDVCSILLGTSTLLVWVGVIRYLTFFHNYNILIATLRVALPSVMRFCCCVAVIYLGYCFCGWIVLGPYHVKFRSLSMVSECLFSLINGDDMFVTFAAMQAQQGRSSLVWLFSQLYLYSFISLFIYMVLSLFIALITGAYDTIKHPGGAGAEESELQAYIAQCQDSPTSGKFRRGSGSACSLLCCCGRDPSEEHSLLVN
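Calcium fluorescence on an FDSS kinetic reader gave the read-out. Tet-induced TRPML1-DL cells were plated overnight, dye-loaded (Ca8 with quencher, 45-90 min, room temperature, dark), then read 110 s after compound addition, and again 110 s after 4uM final 54-4 (EC80).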
CtBP-E1A inh: qHTS Assay for Inhibitors of the CtBP/E1A Interaction | AlphaScreen GST-E1A/His-CtBP binding, 1536-well; active compounds read low; control for the full effect not named in the record | activity change, % (concentration not given with the values) | 340,000 compounds, 0.49% hits; in the data active means activity change below about -65%; inconclusive means about -30% to -65%; inactive means above about -30%; note: % is set by controls: 0 for no effect and ±100 for the full control effect
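GST-E1A and His-tagged CtBP (125 nM each as 5X stock) were preincubated with pin-transferred compound for 2 h at 37 °C in the dark, then glutathione donor and nickel acceptor beads were added for 1 h before AlphaScreen reading.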
Active calls of the source: *; ? = inconclusive; nt = no result given; [ ] = dose if it differs, or a comment.

no.	mol	PINK1 modulator	D2 potentiator	D2 agonist	Six1-Eya2 blk	TRPML1 agonist	CtBP-E1A inh
1	c1ccc(COc2ccc(-c3cc4nc(NCCN5CCOCC5)ccn4n3)cc2)cc1	5.9%	3.6	9.6	-6.6	0.2	-5.3
2	CC1(C(=O)N2CC3(CC(c4cccc([N+](=O)[O-])c4)=NO3)C[C@H]2C(=O)NCC(N)=O)CC1 (stereo partly drawn)	0.6%	-6.5	-6.6	9.2	-0.8	4.4
3	CN(C)c1cccc(CNC(=O)c2csc([C@@H]3O[C@H](CO)[C@H](O)[C@H](O)[C@H]3O)n2)c1	0.6%	-11.4	-2.3	-1.6	-0.1	5.5
4	OC(COC(c1ccc(Cl)cc1)c1ccc(Cl)cc1)CN1CCN(c2ccccn2)CC1 (stereo not drawn)	-0.2%	-17.0	-1.4	-14.9	1.5	-9.1
5	CCC(C)(C)n1c(=O)[nH]c2c(c1=O)CCC2	-1.8%	-11.5	-3.7	1.8	0.5	3.5
6	COc1ccc(OC)c(CNC(=O)c2[nH]c(C(F)(F)F)nc2-c2ccccc2)c1	1.4%	-4.2	-4.2	-6.4	1.6	?
7	COc1cc(C(=O)NCc2cn3ccccc3n2)cc(OC)c1OC	1.0%[38.3 µM]	-22.3	-2.6	-1.9	-0.2	3.6
8	COc1ccc(N(CC(=O)Nc2ccc(F)c(Cl)c2)S(=O)(=O)c2c(C)noc2C)cc1	7.3%	-9.4	0.2	4.0	1.7	1.3
9	COc1ccc(N2CC(NS(=O)(=O)c3ccc4ccccc4c3)CC2=O)cc1 (stereo not drawn)	-0.7%	-2.4	-1.8	-12.6	2.9	4.9
10	CC1(C)CC2CC(C)(CN2CC(O)c2ccccc2)C1 (stereo not drawn)	0.2%	-5.1	-1.7	13.0	0.2	nt
11	Cc1cccc(-n2cnc(C(=O)N/N=C\c3ccc(Br)cc3)c2)n1	5.3%	-20.1	1.8	7.3	0.5	-10.8
12	COc1ccc(CC(=O)Nc2cc3oc4ccccc4c3cc2OC)cc1	1.6%	3.0	3.9	-2.3	-0.5	-9.6
13	O=C(CCN1CCN(Cc2ccccc2)CC1)Nc1ccccc1Cl	-0.9%	-25.0	-3.4	8.8	-0.6	4.6
14	N#Cc1nc(-c2ccc(OCc3ccccc3)cc2)oc1NCCCn1ccnc1	?	13.6	-2.3	-8.0	1.9	-0.8
15	S=c1[nH]nc(-c2cccnc2)n1-c1ccccc1	-4.2%[38.3 µM]	-3.4	3.8	6.0	0.3	7.1
16	OC(CN1CCN(c2ccccn2)CC1)Cn1c2ccccc2c2ccccc21 (stereo not drawn)	4.8%	-6.0	7.6	-17.3	0.0	-15.5
17	C[C@@H](O)c1nc2ccccc2n1N	0.8%	4.1	2.9	3.7	1.4	4.0
18	Cc1ccc(CNS(=O)(=O)c2cn(C)cn2)cc1	-0.6%[38.3 µM]	19.4	1.1	-1.1	-0.2	-15.3
19	Brc1c(OCCOCCn2cncn2)ccc2ccccc12	1.1%	-5.9	-4.2	-1.2	-1.0	-0.6
20	Cc1ccccc1OCCC(=O)Nc1ccc2c(C)cc(=O)oc2c1	0.2%	-15.0	-3.2	-1.7	1.5	-0.1
21	CCc1nnc(NC(=O)C(CC)CC)s1	0.9%	-2.6	0.5	3.2	0.4	1.7
22	CC(OC(=O)c1cccc(S(=O)(=O)N2CCN(C)CC2)c1)C(=O)Nc1ccc(C(N)=O)cc1 (stereo not drawn)	-1.1%	-10.5	-2.6	-5.9	0.9	9.0
23	CCOc1ccccc1/C=N/NC(=O)CNC(=O)COc1ccccc1	1.3%	-6.6	-8.1	-0.9	-1.3	-16.7
24	CS(=O)(=O)c1ccc2nc(NC(=O)c3cccc(NS(=O)(=O)c4ccc(F)c(F)c4)c3)sc2c1	6.2%	-0.3	-1.4	5.9	-0.5	-4.6
25	O=C(CSc1c2c(nc3ccc(Cl)cc13)CCCC2)N1CCN(C(=O)c2ccco2)CC1	-0.4%	-34.1	0.0	17.1	0.6	nt
26	Cn1c(=O)c2[nH]c(=O)cnc2n(C)c1=S	-0.2%	-3.7	-1.8	-2.4	4.4	-11.2
27	CC(C)CN1CCN(Cc2nc(C(C)C)cs2)CC1CCO (stereo not drawn)	1.0%	-14.0	-5.4	16.3	0.0	-6.5
28	CCOC(=O)c1c2c3c(cccc3n(C)c1=O)C(=O)c1ccccc1-2	-1.5%	4.5	-4.2	-68.6*	-0.9	-82.7*
29	Cc1ccc(C)c(NC(=O)CSc2sc3c(O)cc(=O)[nH]c3c2C#N)c1	0.1%	-4.8	0.5	-2.7	-0.3	0.3
30	Cn1ncc([N+](=O)[O-])c1C(=O)N1CCCCCC1	-0.7%	-47.8	-1.3	-13.4	-0.1	-23.5
31	COc1ccc(/C=N\NC(=O)c2sc(N)nc2C)cc1OC	-0.1%	-2.5	-3.5	?	-0.9	-68.1*
32	COC(=O)CCc1c(C)c(C(=O)c2cc(F)c(F)c(F)c2F)c2ccccn12	2.8%	-8.2	-0.7	2.2	1.3	4.9
33	O=C(CSc1nc2ccccc2o1)Nc1ccc(Cl)cc1	-0.9%	-2.0	0.8	5.8	-0.2	7.8
34	O=C(NC1CCCCC1)c1cnn2c(C(F)(F)F)cc(-c3ccco3)nc12	?	-20.4	-4.5	-5.0	0.1	-0.2
35	CCOc1ccccc1NC(=O)C1C2CCC(O2)C1C(=O)O (stereo not drawn)	8.5%	5.1	-1.8	-0.2	-0.4	11.8
36	O=C(C[n+]1ccc(C(=O)NCc2ccccc2)cc1)c1ccc2c(c1)OCCO2	3.1%	-15.8	-4.7	2.1	0.0	9.7
37	CCOC(=O)C1(C)CCCN1C(=O)c1ccc(C)cc1 (stereo not drawn)	0.6%	-11.9	-6.0	-3.2	-0.3	3.8
38	O=S(=O)(CCN1CCOCC1)c1ccc(OC(F)(F)F)cc1	1.0%	-7.7	-1.7	5.2	-0.5	3.1
39	CCOC(=O)CCNC(=O)N1CCC(CCC(=O)NCc2ccc(F)cc2)CC1	4.4%	5.2	3.7	1.7	0.6	10.4
40	CCOC(=O)N1CCN(c2c(N3CCN(c4ccccc4F)CC3)c(=O)c2=O)CC1	-0.1%	-3.6	-4.0	10.2	0.1	-1.3

Whole records, quoted from the list.
Cc1ccc(C)c(NC(=O)CSc2sc3c(O)cc(=O)[nH]c3c2C#N)c1 in the list: PINK1 modulator: 0.1%; D2 potentiator: -4.8; D2 agonist: 0.5; Six1-Eya2 blk: -2.7; TRPML1 agonist: -0.3; CtBP-E1A inh: 0.3
Cn1ncc([N+](=O)[O-])c1C(=O)N1CCCCCC1 in the list: PINK1 modulator: -0.7%; D2 potentiator: -47.8; D2 agonist: -1.3; Six1-Eya2 blk: -13.4; TRPML1 agonist: -0.1; CtBP-E1A inh: -23.5

Continued.
no.	mol	PINK1 modulator	D2 potentiator	D2 agonist	Six1-Eya2 blk	TRPML1 agonist	CtBP-E1A inh
41	Nc1c(-c2ccccc2)cnc2c(-c3ccccc3)cnn12	2.5%	0.5	0.5	-1.2	-0.8	nt
42	O=C(Cc1cccc([N+](=O)[O-])c1)Nc1cccc(C(=O)N2CCOCC2)c1	2.0%	-6.3	0.2	-24.1	-0.4	nt
43	Cc1cc(C)nc(/N=C(\N)Nc2ccc([N+](=O)[O-])cc2)n1	8.5%	-1.8	1.2	1.2	27.4	7.4
44	COc1ccc(NC(=O)C2(C)CCCN(C(C)C)C2)cc1OC (stereo not drawn)	0.5%	-6.2	-0.6	5.4	0.2	1.7
45	CCOC(=O)N1CCN(C(=O)Cn2c(=O)sc3ccccc32)CC1	-3.5%	5.2	-1.1	7.3	-0.2	4.6
46	COc1ccc(S(=O)(=O)N2CCC(C(=O)NC3CCCCC3)CC2)cc1C	0.0%	-1.4	0.7	-4.3	0.2	8.2
47	COc1ccc(S(=O)(=O)N2CCOCC2)cc1NC(=O)CSc1ncnc2ccccc12	-1.0%	-6.9	-18.6	5.2	3.5	-3.2
48	CCOC(=O)C(C(=O)OCC)=C1OC(=O)c2ccccc21	-0.4%	4.4	1.2	10.2	-0.7	8.3
49	O=[N+]([O-])c1ccc(N2CCN(Cc3ccccc3)CC2)nc1	1.3%	-14.9	-1.1	-0.6	-1.0	-5.4
50	CS(=O)(=O)NCCSCc1ccccc1	1.4%	-12.6	-2.2	7.9	-0.2	12.6
51	O=S(=O)(c1ccc(NC(=S)NCc2ccc(F)cc2)cc1)N1CCOCC1	3.7%	23.1	1.7	3.6	6.2	-1.2
52	COc1ccccc1C(=O)OCCCN=C1NS(=O)(=O)c2ccccc21	-0.4%	-12.0	1.4	2.4	0.8	5.9
53	Cc1ccc(CNC(=O)c2ccccc2NC(=O)CN2CC(C)OC(C)C2)cc1 (stereo not drawn)	0.3%	-5.6	-2.0	5.3	0.0	-10.2
54	O=C(NCCCCc1ccccc1)C1CC(c2cccc(F)c2)=NO1 (stereo not drawn)	-1.5%	-6.9	-4.1	3.0	3.1	4.9
55	CN(c1ccc(C(=O)Nc2ccc3c(c2)OCCO3)cc1)S(C)(=O)=O	2.1%[38.3 µM]	-15.6	-1.8	-1.0	0.4	-0.6
56	Cc1ccc(NC(=S)NNC(=O)CSc2nc3ccccc3c(=O)n2-c2ccc(C)cc2)cc1	-0.5%	-21.6	-2.3	-18.7	1.3	-18.5

Shown with each value named: entries from further up
#47 COc1ccc(S(=O)(=O)N2CCOCC2)cc1NC(=O)CSc1ncnc2ccccc12
  PINK1 modulator: -1.0% | D2 potentiator: -6.9 | D2 agonist: -18.6 | Six1-Eya2 blk: 5.2 | TRPML1 agonist: 3.5 | CtBP-E1A inh: -3.2

#49 O=[N+]([O-])c1ccc(N2CCN(Cc3ccccc3)CC2)nc1
  PINK1 modulator: 1.3% | D2 potentiator: -14.9 | D2 agonist: -1.1 | Six1-Eya2 blk: -0.6 | TRPML1 agonist: -1.0 | CtBP-E1A inh: -5.4

#42 O=C(Cc1cccc([N+](=O)[O-])c1)Nc1cccc(C(=O)N2CCOCC2)c1
  PINK1 modulator: 2.0% | D2 potentiator: -6.3 | D2 agonist: 0.2 | Six1-Eya2 blk: -24.1 | TRPML1 agonist: -0.4 | CtBP-E1A inh: nt

#44 COc1ccc(NC(=O)C2(C)CCCN(C(C)C)C2)cc1OC (stereo not drawn)
  PINK1 modulator: 0.5% | D2 potentiator: -6.2 | D2 agonist: -0.6 | Six1-Eya2 blk: 5.4 | TRPML1 agonist: 0.2 | CtBP-E1A inh: 1.7

Screening results as filed in PubChem.
